PrP UTR inh – suppresses PrP 5' UTR mRNA reporter expression; AID 488862; cell-based PrP 5' UTR mRNA reporter, plate reader; inhibition, % (test concentration not listed); hit rate 0.35% among 340,000;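 active means every replicate at 50% or more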;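 further: 0 = median of the neutral control wells; tested in H4 reporter cells; numbers are from one replicate; inactives centre near -14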
Autofluor counter – counter-screen for toxin protease inhibitors: compound fluorescence. compound autofluorescence counterscreen, microsphere flow cytometry; hits give high values. fluorescence intensity (no concentration beside the values). hit rate 3.1% among 360,000. AID 624483;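 active means at least 3 SD above the mean of all compounds, about 16000 in these data; inconclusive means too few beads counted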;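 further: 100 nL of 1 mM stock went into each well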
ugtP null kill – kills S. aureus RN4220 lacking UgtP; S. aureus RN4220 ugtP deletion, OD600 growth, 16 h; some inactives read as strong as hits; growth inhibition, % (concentration not given with the values); hit rate 0.54% among 330,000;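 active means z-score under -3 and OD600 up to 0.15 on both plates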;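 further: plate controls were untreated wells for no effect and antibiotic for full effect; wells of about 80 µL received 100 nL stock; the first replicate is given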
Sa RN4220 lethal – S. aureus RN4220 growth inhibition. OD600, 16 h. inhibition, % (test concentration not listed). hit rate 0.33% among 330,000. AID 1259311;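 active means z-score of -3 or lower and OD600 up to 0.18 on both plates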;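 further: plate controls were untreated cells for no effect and reference antibiotic for full effect; stock transfer was 100 nL into about 80 µL; one replicate is shown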
Mtb hypoxia rep – Mtb hypoxia fluorescent reporter inhibition; M. tuberculosis hypoxia-regulated fluorescent reporter, fluorescence; AID 1159583; hit rate 0.1% among 300,000; fluorescence inhibition, % (test concentration not listed);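 active means 35 to 45% if threefold the growth effect, above 45% if 1.5-fold the growth effect; inactive means the rest, general growth blockers included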;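 further: wells of about 50 µL received 100 nL stock; 0% = vehicle wells and 100% = reference inhibitor wells; whole bacteria with a GFP reporter of the hypoxia response; strong numbers were not always called active; many hits fall short of the cut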
BJeLR lethal – BJeLR cell viability loss; BJeLR (HRASV12) viability, CellTiter-Glo ATP luminescence, 48 h; reference of the scale not given here; inhibition, % (concentration not given with the values); hit rate 0.17% among 300,000;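 active means replicate mean above 50%; inconclusive means above 50% but judged a plate artefact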;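 further: 50 nL library stock added to about 25 µL; numbers are from one replicate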
Mtb hypoxia rep growth – recorded beside Mtb hypoxia rep, whose call it bears; growth inhibition, %; measured here: M. tuberculosis growth (absorbance);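 0% = vehicle and 100% = reference antibiotic; read after six days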
Active calls of the source: *; ? = inconclusive; · = not tested or not shown.

Values in the order: Sa RN4220 lethal	PrP UTR inh	Autofluor counter	Mtb hypoxia rep growth	BJeLR lethal	Mtb hypoxia rep	ugtP null kill
CCCCCCCCN1C(CC(=O)OC)c2cc(F)ccc2S1(=O)=O (configuration not stated)
 : 5.0	·	·	4	·	23	11
COc1ccccc1C1C(c2cccc(C)c2)=NN(c2ccccc2)C1C(=O)N1CCOC1=O (configuration not stated)
 : 0.7	·	·	2	·	5	3
CCOC(=O)N(NC(=O)C(O)(CC(C)C)CC(C)C)c1ccccc1
 : 0.3	-10	2090	-4	8	-17	1
CSCc1c(C(=O)OCC(=O)NC2CCCCC2)oc2ccccc12
 : -1.5	-1	·	-5	·	-7	5
Cc1noc(C)c1S(=O)(=O)N1CCC(C(=O)NC2CCN(Cc3ccccc3)CC2)CC1
 : -0.7	-14	10538	9	5	-3	-1
Nc1c(N(Cc2ccco2)C(=O)c2cccc(Cl)c2)c(=O)[nH]c(=O)n1Cc1ccccc1
 : 3.3	-14	·	-2	·	-3	5
O=C(NCCCN1CCN(c2ccccc2F)CC1)C1CCC(=O)N1C1CCCC1 (configuration not stated)
 : 5.7	-4	5761	9	21	5	10
COc1ccc(CN(C)C(=O)c2ccc3c(=O)n4c(nc3c2)CCC4)cc1
 : 0.1	-5	4598	2	5	13	10
COc1ccc(NC(=O)CCCn2cc([N+](=O)[O-])cn2)cc1
 : 10.0	-9	4063	5	2	2	5
CC(C)c1cc(C(=O)N2CCCC(N3CCN(c4ccc(F)cc4)CC3)C2)n(C)n1 (configuration not stated)
 : 2.5	-16	5930	2	6	7	12
O=c1[nH]ncc(N2CCCC2)c1Cl
 : 0.5	4	2522	10	3	0	5
CCOC(=O)C1=C(C)NC(=O)C1CC(=O)O (configuration not stated)
 : 5.0	-29	2540	6	-1	-1	4
CN(CC(O)COCc1ccc2c(c1)OCO2)C1CCCCC1 (configuration not stated)
 : 0.1	-9	2094	-3	4	2	3
O=C(c1ccc(Br)o1)N1CCC(Cc2ccccc2)CC1
 : 4.2	-14	5848	16	0	18	20
CC(c1ccccn1)N(CCN(C)C)C(=S)Nc1cccc(F)c1 (configuration not stated)
 : 3.1	-12	7591	2	15	5	14
COc1cc2c(cc1OC)CC1(CCCCC1)N=C2
 : 0.9	-22	4653	7	8	2	3
CC(=NNC(=O)CNc1ccccc1)c1ccccc1
 : 0.3	·	·	6	·	19	-1
COc1ccc(N2C(=O)CC(N3CCN(S(=O)(=O)c4ccc(Cl)cc4)CC3)C2=O)cc1 (configuration not stated)
 : 5.2	-29	4943	1	2	1	-1
Cc1onc(C(=O)Nc2c(C)n(C)n(-c3ccccc3)c2=O)c1[N+](=O)[O-]
 : 5.3	-105	4638	8	-6	-7	12
NC(=O)C1CCN(c2c([N+](=O)[O-])cc(C(F)(F)F)cc2[N+](=O)[O-])CC1
 : 2.8	-23	4090	0	4	3	3

The final 2 records of the section before open the next one.
Values in the order: Sa RN4220 lethal	PrP UTR inh	Autofluor counter	Mtb hypoxia rep growth	BJeLR lethal	Mtb hypoxia rep	ugtP null kill
Cc1onc(C(=O)Nc2c(C)n(C)n(-c3ccccc3)c2=O)c1[N+](=O)[O-]
 : 5.3	-105	4638	8	-6	-7	12
NC(=O)C1CCN(c2c([N+](=O)[O-])cc(C(F)(F)F)cc2[N+](=O)[O-])CC1
 : 2.8	-23	4090	0	4	3	3
O=C(COc1cccc2ccccc12)Nc1cc(Cl)ccc1C(=O)O
 : ·	-16	?	·	-6	·	·
CCN1CCN(CC(=O)N2N=C(c3cccs3)CC2c2ccc(OC)cc2)C(=O)C1=O (configuration not stated)
 : 5.9	-24	4921	7	0	12	5
CCc1nnc(NS(=O)(=O)c2ccc(N=Cc3c(O)n(-c4ccc(Cl)cc4)c(=O)[nH]c3=O)cc2)s1
 : 4.3	-24	3340	·	6	·	11
Cc1ccc(S(=O)(=O)NC(C(=O)Oc2ccc3ccc(=O)oc3c2)c2ccccc2)cc1 (configuration not stated)
 : 3.2	-27	10171	8	1	13	6
CC1CN(C(C)CO)C(=O)c2cc(NC(=O)Nc3ccc4c(c3)OCO4)ccc2OC1CN(C)S(=O)(=O)c1cccs1 (configuration not stated)
 : 2.1	·	·	13	·	7	-3
O=C1CC(=O)N(c2ccc3c(c2)OCO3)C(=O)N1
 : 1.6	-3	4792	2	11	4	7
Cc1cc(Cl)c(S(=O)(=O)NCC2CCCO2)cc1OCC(=O)NC1CCCCC1 (configuration not stated)
 : 2.5	-2	9933	-1	3	2	1
Cc1nc(-c2ccccc2)sc1C(=O)O
 : 1.8	-26	4649	4	10	-1	1
CCc1cc(S(=O)(=O)N2CCN(C(=O)c3ccco3)CC2)ccc1OC
 : -1.7	-14	3493	14	7	10	1
COc1cc(C=NNC(=O)c2cccc(S(=O)(=O)N3CCCC3)c2)cc(OC)c1O
 : 2.4	·	·	5	·	9	7
COc1ccc(C(=O)Oc2ccc(C(C)=O)cc2)c(OC)c1
 : 0.9	-41	5022	·	-1	·	7
c1ccc2sc(NC3=NCN(C4CCCCCC4)CN3)nc2c1
 : 1.0	-34	19894*	6	-1	0	0
O=C(CCc1ccccc1)N1CCCN(C(=O)CCc2ccccc2)CC1
 : 4.8	-8	2557	3	-5	5	-6
CSc1ccc(CCNC(=O)c2cc(-c3ccccc3)c(N3CCOCC3)s2)cc1
 : 1.8	0	5325	5	9	9	4
Cc1cc(C)c(NC(=O)CN(C)S(=O)(=O)c2ccc3c(c2)n(C)c(=O)c(=O)n3C)c(C)c1
 : 4.6	-4	5064	10	5	17	6
COc1ccc(CCN(C)CC(O)COc2c(C)ccc(C)c2C)cc1OC (configuration not stated)
 : 4.0	6	3039	-3	2	-6	-2
O=C1NCCN(Cc2ccc(Cl)c(F)c2)C1CC(=O)N1CCc2ccccc2C1 (configuration not stated)
 : 4.0	-17	4265	-3	-2	2	-3
Cc1ccc(Cn2c(=S)[nH]c3ccccc3c2=O)cc1
 : 4.1	0	3686	14	-19	3	-11
CCS(=O)(=O)c1ncc(Cl)c(C(=O)Nc2ccc(S(=O)(=O)N(C)c3ccccc3)cc2)n1
 : ·	-6	4363	·	35	·	·
CC1=NN(c2cccc(Cl)c2)C(=O)C12CC(C)=C(C)CS2 (configuration not stated)
 : -1.1	-14	4216	7	-5	5	36
COc1ccc(OC)c(S(=O)(=O)N2CCC(C(=O)NCCc3ccccc3)CC2)c1
 : 7.7	-3	10525	4	-6	6	10
COc1cccc(/C=c2\s/c(=C/C(=O)c3ccc(C)cc3)[nH]c2=O)c1OC
 : ·	-6	10658	·	3	·	·
COC(=O)c1c(-c2cccs2)csc1NC(=O)c1cccnc1
 : 10	-52	2503	·	-7	·	39
CC1CN(S(=O)(=O)c2ccc(C(=O)Nc3nnc(-c4ccco4)o3)cc2)CC(C)O1 (configuration not stated)
 : 11	-19	2132	6	8	9	1
COc1cccc(OC)c1C(=O)OCC(=O)NC1CCCCCC1
 : 4.3	·	·	7	·	14	5
Cc1ccc(NC(=O)CCCNC(=O)c2ccc(Cl)cc2)cc1S(=O)(=O)N1CCOCC1
 : 4.1	1	6276	10	·	11	3
COc1cc(C(=O)Nc2ccccc2C(=O)NCc2cccnc2)cc(OC)c1OC
 : -1.7	-24	5606	5	-7	-12	-1
Cc1ccc(N2C(=O)CC(N3CCN/C3=C3\CC/C(=C\c4ccccc4)C3=O)C2=O)cc1 (configuration not stated)
 : 3.2	-7	3312	5	1	-6	-7
O=C(NC(=S)NCC1CCCO1)c1ccccc1F (configuration not stated)
 : -1.5	-25	2575	-19	-2	-4	2
CC(NC(=O)c1ccccc1)C(=O)N/N=C/c1cccc([N+](=O)[O-])c1 (configuration not stated)
 : ·	-25	1986	·	-1	·	·
COc1ccccc1OCCNC(=O)C(CCSC)NC(=O)c1ccccc1Cl (configuration not stated)
 : -0.1	-9	6151	6	2	1	-2
Cc1ccc([C@H]2C(C(=O)O)=CC[C@@H](c3ccc(Cl)cc3)N2S(=O)(=O)c2ccccc2C)cc1
 : 12	-12	4297	-1	·	-1	-5
CC(=NNC(=O)CSc1nc2ccccc2[nH]1)c1ccncc1
 : 5.8	·	·	10	·	2	9
CCC1=C2CC[C@H]3C(=O)N(CC)C(=O)[C@H]3[C@H]2[C@@]2(Cc3ccccc3)C(=NCc3ccccc3)OC(=O)N2C1=O
 : ·	-20	4166	·	-3	·	·
COc1ccc(-n2c(C)cc(C(=O)COC(=O)c3ccc(O)cc3O)c2C)cc1
 : 26	-25	3589	7	·	-2	-1
COc1ccc(Cl)cc1NC(=O)COC(=O)CCNC(C)=O
 : 0.2	-15	3747	·	2	·	3
N#C/C(=C\c1cccs1)C(=O)NCc1cccnc1
 : 5.6	-24	1977	0	0	-8	6
CCc1ccccc1NC(=S)N1CCCCCC1
 : 0.5	-29	5885	-5	·	4	0
CN1CCN(Cn2cc(/C=C/C(=O)c3ccccc3)c3ccccc32)CC1
 : ·	-183	11575	·	2	·	·
COc1ccccc1N1CCN(C(=O)c2cc3cc(Br)ccc3oc2=O)CC1
 : -8.9	-24	6901	2	5	4	-2
Cc1ccc2nc(-c3ccccc3)cc(C(=O)NNC(=O)c3csc(N4CCOCC4)n3)c2c1
 : -1.9	-13	?	11	7	7	5
CC(SCc1ccc(C(=O)O)o1)c1ccc(C(=O)O)o1 (configuration not stated)
 : 2.9	-11	3031	1	1	-4	9
O=C(NC(CC(=O)N1CCN(c2ccccc2O)CC1)c1ccccc1)c1ccccc1Cl (configuration not stated)
 : 6.2	-11	2902	-4	·	2	7
Cc1ccc(-n2nc3c(c2NC(=O)C(C)C)CS(=O)(=O)C3)cc1
 : 4.2	-20	5637	-4	-17	-5	4
COc1ccc(C=NNC(=O)CCn2c3ccccc3c3ccccc32)cc1O
 : 7.4	·	·	11	·	18	-8
COc1cccc(CC(NC(C)=O)C(=O)NC2CCN(c3nc(C)cc(C)c3C#N)CC2)c1OC (configuration not stated)
 : -1.9	-6	4426	·	-1	·	-7
Cc1cc(Cl)ccc1NC(=O)CCCN1C(=O)CCC1=O
 : 3.5	-13	11642	7	6	9	4
CC[C@]12c3[nH]c4ccc(OC)cc4c3CCN1C(=O)C(CC(=O)NC(C)(C)C)C[C@@H]2C(=O)N1CCN(C(=O)c2ccco2)CC1 (some centres not stated)
 : 1.9	-21	4150	4	·	-7	1
COc1ccc(NS(=O)(=O)c2cc(NC(=O)[C@@H](NC(=O)c3ccccc3)C(C)C)ccc2C)cc1
 : -11	-46	2485	5	6	1	21
Cc1ccc(NC(=O)Cc2cn3ccsc3n2)nc1
 : 8.0	-23	·	11	-7	0	-4
O=C(CN1C(=O)c2ccccc2S1(=O)=O)NCCSCc1ccco1
 : -1.1	-72	11417	12	7	-7	0
CCOc1ccc(S(=O)(=O)/N=C(/Nc2ccc(C)c(S(=O)(=O)N3CCOCC3)c2)c2ccccc2)cc1
 : -3.2	-29	7867	3	·	2	-19

Outcome played no part in choosing rows. Share with any hit: about 4%.
